TRPML1 inh: inhibitors of human TRPML1 channel; Q9GZU1; 390,000 compounds, 0.02% hits; TRPML1-inducible cells, Ca2+ dye fluorescence, FDSS; active compounds read low; inhibition of EC80 agonist-evoked calcium signal; AID 624415; activity change, negative = inhibition, % (no concentration beside the values); in the data active means activity change below about -50%; inconclusive means about -30% to -50%; inactive means above about -30%;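 note: stimulus is agonist 54-4 at its EC80 concentration; % is set by controls: 0 for no effect and ±100 for the full control effect; compound concentration not given in the record; the text of the record puts the active cut at -80%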
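Tet-induced TRPML1-DL cells loaded with Ca8 no-wash calcium dye were read kinetically on FDSS. Compound addition was followed by EC80 agonist 54-4 (4 uM final); inhibition was read over 110 s.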
TRPV1 potentiator: enhances activation of the human vanilloid receptor TRPV1; TRPV1-expressing cells, Fluo-8 calcium influx, capsaicin EC20 potentiation; host cell line not named in the record; control for the full effect not named in the record; potentiation, % at 8.33 µM; 320,000 compounds, 0.02% hits; AID 540277; active means potentiation above 80%; inconclusive means 30% to 80%; inactive means below 30%; note: 0% is about no effect
Target sequence (Q8NER1 whole entry, looked up): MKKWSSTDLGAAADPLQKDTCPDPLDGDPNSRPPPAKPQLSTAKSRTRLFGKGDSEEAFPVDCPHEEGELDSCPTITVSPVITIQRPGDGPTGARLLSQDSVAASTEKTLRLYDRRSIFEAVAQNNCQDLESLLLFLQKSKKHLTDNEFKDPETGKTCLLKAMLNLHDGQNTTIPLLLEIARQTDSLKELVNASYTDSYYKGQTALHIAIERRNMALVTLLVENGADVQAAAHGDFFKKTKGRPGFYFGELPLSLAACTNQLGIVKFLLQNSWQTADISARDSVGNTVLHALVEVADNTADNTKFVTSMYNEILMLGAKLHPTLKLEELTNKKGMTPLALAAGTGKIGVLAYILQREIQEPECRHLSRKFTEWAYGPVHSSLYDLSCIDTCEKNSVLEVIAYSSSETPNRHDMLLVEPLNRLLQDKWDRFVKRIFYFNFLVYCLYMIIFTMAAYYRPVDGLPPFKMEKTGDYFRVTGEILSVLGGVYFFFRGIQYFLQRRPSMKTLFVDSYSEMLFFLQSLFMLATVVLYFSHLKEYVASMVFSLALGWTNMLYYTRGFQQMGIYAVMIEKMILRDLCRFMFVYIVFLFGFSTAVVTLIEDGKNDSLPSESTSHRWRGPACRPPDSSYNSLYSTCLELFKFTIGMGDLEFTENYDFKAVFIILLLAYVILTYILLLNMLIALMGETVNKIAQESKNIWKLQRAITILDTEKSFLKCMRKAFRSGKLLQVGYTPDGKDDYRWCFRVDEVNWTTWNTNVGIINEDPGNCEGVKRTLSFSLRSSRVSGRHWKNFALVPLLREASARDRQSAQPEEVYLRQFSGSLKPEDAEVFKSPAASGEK
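Cells expressing TRPV1 were dye-loaded with Fluo-8 and read kinetically: 10 s baseline, 3 min after compound (agonist portion), then 2 min after EC20 capsaicin (allosteric enhancer portion). Calcium-bound dye fluorescence at 480/520 nm.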
Sfp PPTase inh: Sfp phosphopantetheinyl transferase inhibition; Q9F4F7; Biochemical Sfp PPTase activity, qHTS; Potency, µM, for the others: max response, negative = inhibition, actives largely listed as inhibitors; 310,000 compounds, 3.5% hits; AID 1490; active = well fitted inhibition curve with a large enough effect; inconclusive = small, poorly fitted or top-dose-only effect, or another doubt; inactive = no such curve, though single readings can be large or run the other way;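 note: the enzyme is Sfp with the accession as filed and its product quenches rhodamine fluorescence; potency is the fitted concentration of half-maximal effect; 0% = enzyme reaction without inhibitor and -100% = no enzyme wells; top concentration of the series not given in the record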
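After 15 min at room temperature with compound, 15 nM Sfp received 5 uM rhodamine-CoA plus 12.5 uM BHQ-2-ybbR (50 mM Hepes pH 7.6, 10 mM MgCl2). Rate came from the fluorescence difference over 30 min, ex 525/em 598 nm.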
TRPML1 agonist: human mucolipin-1 channel agonism; TRPML1-expressing cells, Ca2+ dye fluorescence, FDSS; host cell line not named in the record; reference of the full effect not given here; Q9GZU1; AID 624414; activation, % (concentration not given with the values); 410,000 compounds, 0.12% hits; in the data active = activation above about 50%; inconclusive = about 30% to 50%; inactive = below about 30%; note: 0% is about no effect; the text of the record puts the active cut at 80%
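In this qHTS format, compounds were pin-transferred onto Ca8-dye-loaded TRPML1-DL cells induced with Tet overnight, and intracellular Ca2+ fluorescence was recorded kinetically for 110 s after a 10 s baseline. A subsequent 4uM final 54-4 (EC80) addition followed by a second 110 s read served as the antagonist phase.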
PINK1 modulator: modulators of PINK1 expression; PINK1 immunofluorescence, high-content cytometry, 24 h; Potency, µM (doses to about 76.6 µM), for inactives: at the top dose activation (PINK1 increase), actives largely listed as activators; 410,000 compounds, 0.2% hits; active = well fitted activation curve with a large enough effect; inconclusive = small, poorly fitted or top-dose-only effect; inactive = flat fitted curve, though single readings scatter; cell line not stated here;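 note: potency is the fitted concentration of half-maximal effect; % of control where 0% means no effect; nearly all actives have a fitted effect of over 65% in size; a mitochondrial uncoupler was the plate control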
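Fluorescence from anti-PINK1 antibody, together with nuclear and cell stains, was scanned on a laser-scanning cytometer. Before staining, stable-line cells were incubated 24 hours with compounds at 5 concentrations; primary antibody 12 h at 10 degrees C.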
ClpP mod: qHTS Assay for Activators of ClpP. ATP-dependent Clp protease proteolytic subunit (Bacillus subtilis (strain 168)), P80244. purified B. subtilis ClpP, FRET peptide cleavage, 20 min. Potency, µM (top dose mostly 57.5 µM), without a hit: at the highest dose activity change, negative = active. 340,000 compounds, 1.9% hits. AID 651965, 2013; active = well fitted falling curve with a large enough effect; inconclusive = small, poorly fitted or top-dose-only effect; inactive = no such curve, though single readings can be large or run the other way; note: potency is the fitted concentration of half-maximal effect; the source files actives as falling curves though it sought activators and does not explain the sign; nearly all actives have a fitted effect of over 65% in size; many hits overshoot -100%
Target sequence (P80244 whole entry, looked up): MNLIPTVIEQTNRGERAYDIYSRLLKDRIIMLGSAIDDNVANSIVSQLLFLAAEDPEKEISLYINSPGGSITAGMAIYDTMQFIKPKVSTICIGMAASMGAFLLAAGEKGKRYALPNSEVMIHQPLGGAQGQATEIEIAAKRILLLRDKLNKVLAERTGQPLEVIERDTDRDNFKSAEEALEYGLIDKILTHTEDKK
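ClpP 10 microg/mL final, pH 8 Tris/KCl buffer with BSA, glycerol, Tween-20; compound pinned in; FRET-FV substrate; RT 20 min; Ex320/Em430; ΔFRET vs ADEP 5.8 microM, DMSO, no enzyme.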
Menin MLL FP FL: menin-MLL binding inhibition, fluorescein peptide | Fluorescence polarization, fluorescein-MLL peptide displacement from menin | FP activity change, % at 61.4 µM | 290,000 tested, under 10 active | AID 1766; inconclusive = falling polarisation curve, or a change in total fluorescence; inactive = total fluorescence flat and polarisation flat or rising; no compound was filed as active; the % refers to the polarisation; negative = inhibition;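 note: % of control where 0% means no effect; inhibitors lower the polarisation; unlabelled MLL peptide was the positive control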
Starred values were filed as active, the others as inactive; ? = inconclusive; . = no result given; & = joins results of further samples; [ ] = another dose, or the depositor's remark.

SMILES	TRPML1 inh	TRPV1 potentiator	Sfp PPTase inh	TRPML1 agonist	PINK1 modulator	ClpP mod	Menin MLL FP FL
Cc1ccc2c(c1)N(C(C)C(=O)N1CCC3(CC1)OCCO3)C(=O)CO2 (stereo not drawn)	1	-7	15%	-0.2	1.7%	.	4.1
COC(=O)[C@@H]1[C@@H](C(=O)OC)C2(c3ccccc3-c3ccccc32)N(c2ccc(Cl)cc2)N1C#N	-4	27	20%	-0.7	-0.3%	-0.9%	4.1
CCCCn1c(O)c(C(CC)=NCc2ccco2)c(=O)[nH]c1=O	-4	-12	0%	-0.1	6.1%[38.3 µM]	1.8%	-0.2
CC12CCC(=O)CC1CCC1C2C(=O)CC2(C)C1CCC2(C)O (stereo not drawn)	16	.	.	0.6	4.1%	.	.
CCC(=O)c1cc(F)c(N2CCN(CC)CC2)cc1C	2	2	22%	1.1	-0.2%	-4.9%	0.6
CC1CCN(c2ccccc2NC(=O)c2cc3ccccc3o2)CC1	-4	-13	4%	2.5	?	-20%	.
Cc1ccccc1N1C(=O)NC(=O)/C(=C/c2ccc(N3CCOCC3)o2)C1=O	4	.	8%	3.0	2.8%	.	?
CC12CN3CC(C)(CN(C1)C3c1cccs1)C2=O (stereo not drawn)	-3	-4	20%	-0.6	0.4%	1.0%	1.2
O=C(NCCN1CCOCC1)c1ccc(Cl)nc1Cl	6	2	-1%	-0.8	0.3%	2.0%	3.2
CC(=O)CC(c1ccc2c(c1)OCO2)c1c(O)c2ccccc2oc1=O (stereo not drawn)	10	.	.	-0.8	4.1%	-2.7%	.
O=C(NCc1ccccc1)c1cccc(Nc2nc3ccccc3n3nnnc23)c1	0	.	.	1.2	4.6%	?	.
CCOC(=O)c1cccc(NC(=O)c2cnc(N3CCCCC3)c3ccccc23)c1	3	.	.	0.8	2.2%	28µM*	.
Oc1ccc(CCNCc2cc3c(cc2Br)OCO3)cc1	2	.	.	1.1	-0.6%	-2.8%	.
COC(=O)CC1=C(C(=O)OC)C2(C(=O)N(C)c3ccccc32)C(C#N)=C(N)O1 (stereo not drawn)	33	-7	3%	1.1	-0.5%	1.2%	3.7
CC(C)(C#CC(=O)O)OOC(c1ccccc1)(c1ccccc1)c1ccccc1	-1	15	4%	0.0	1.0%	1.0%	-3.8
COC(=O)C1=C(c2cc3ccccc3s2)C[C@@H]2CC[C@H]1N2C(=O)N1CCC(O)CC1	18	.	.	0.4	-0.5%	-3.1%	.
CCN1CCN(C(=O)Cc2c(C)n(C(=O)c3ccc(Cl)cc3)c3ccc(OC)cc23)CC1	12	8	-12%	-0.5	0.4%	.	-4.6
CCN1/C(=C\C=C\C2=[N+](CC)c3ccccc3C2(C)C)C(C)(C)c2ccccc21	6	8	?	0.6	-1.7%	1.6%	?
O=[N+]([O-])c1ccccc1CCl	2	-8	.	0.2	3.0%	-2.3%	.
c1ccc2c(CN3CCCCCC3)c[nH]c2c1	2	-7	8%	2.5	-2.4%	-4.4%	-2.8
O=C(NC(Cc1ccccc1)C(=O)N1CCC2(CC1)OCCO2)C1CCCCC1 (stereo not drawn)	-1	-1	2%	-1.1	-2.5%	-1.2%	0.3
CCc1ccc(OCC(=O)N2CCN(CCc3ccccn3)CC2)cc1	-26	.	.	-0.2	1.1%	-1.2%	.
Cn1c[n+](C)cc1C(O)c1ccccc1 (stereo not drawn)	-7&11	15&6	-25%&-26%	0.6&-0.4	-2.9%	-2.6%&-3.2%	1.0&-0.7
CCCC(=O)NC(Oc1ccc(OC)cc1)C(Cl)(Cl)Cl (stereo not drawn)	27	6	21%	0.8	1.7%	.	-0.7
C[N+]1(C)[C@@H]2CC[C@H]1CC(OC(=O)C(c1ccccc1)c1ccccc1)C2 (stereo partly drawn)	41	-5	4%	0.9	1.8%	1.6%	-0.6
Cc1cc(=O)oc2cc(OCC(=O)N3CCN(Cc4ccc5c(c4)OCO5)CC3)ccc12	-7	-8	-7%	0.0	-1.8%	3.9%	.
O=C1NC(=O)C(CCc2ccncc2)(C2CCCCC2)C(=O)N1	-4	-7	16%	-0.5	-0.9%	0.4%	2.3
c1ccc2nc(N3CCNCC3)ccc2c1	27&18	-10	-9%&13%&-5%&34%	0.3&-0.3	2.2%&-0.5%&0.2%	4.2%&4.4%	3.1
C=CCN1CC[C@]23c4c5ccc(O)c4OC2C(O)C=CC3[C@H]1C5 (stereo partly drawn)	-8	.	.	-0.6	0.0%	0.4%	.
CN(N)N=Nc1nc2c([nH]1)c(=O)n(C)c(=O)n2C	0	-1	18µM*	0.2	0.2%	?	-3.2
C[N+]1(C)C2CCC1CC(OC(=O)c1ccccc1)C2 (stereo not drawn)	-6	-8	-18%	-0.6	1.1%	-0.8%	3.8
OCC1OC(n2cnc3cc(Cl)c(Cl)cc32)C(O)C1O (stereo not drawn)	.	.	10%&-5%	-0.3	1.5%&11%	-2.4%	5.7&4.2
CCOC(=O)C1=C(N)Oc2cc(C)oc(=O)c2C12C(=O)N1c3c(cccc32)C(C)CC1(C)C (stereo not drawn)	7	-29	10%	1.6	-4.0%[38.3 µM]	2.8%	2.2
C[C@H]1CC2C3CC=C4C[C@@H](O)CC[C@]4(C)C3CC[C@]2(C)[C@H]1O (stereo partly drawn)	7	.	.	-1.1	1.4%	.	.
CC(C)N(Cc1ccco1)/N=C/c1c(O)n(Cc2ccccc2)c(=O)[nH]c1=O	-8	-14	-10%	1.9	-0.9%	.	1.9
O=C1CC(N2CC=C(c3ccccc3)CC2)C(=O)N1c1ccc(F)cc1 (stereo not drawn)	-3	10	-20%	1.1	0.4%	-5.0%	4.4
COc1ccccc1C1SCC(=O)Nc2c1c(C)nn2-c1cccc(C)c1 (stereo not drawn)	6	.	.	2.9	0.1%	-0.4%	.
CC(=O)N1CC(=O)Nc2ccc(Cl)cc2C1c1ccccc1 (stereo not drawn)	-7	-5	-1%	-0.5	5.2%	.	-13
CC1CCN(CC(=O)c2cccc(C(F)(F)F)c2)CC1	23	6	?	-0.3	1.3%	1.1%	0.2
COC(=O)C1=C(c2ccc(Cl)c(C(F)(F)F)c2)C[C@@H]2CC[C@H]1N2C(=O)NC(C)C	4	-7	.	0.2	-0.8%	-1.0%	.

Copied from the results shown, four compounds:
SMILES	TRPML1 inh	TRPV1 potentiator	Sfp PPTase inh	TRPML1 agonist	PINK1 modulator	ClpP mod	Menin MLL FP FL
Cc1ccc2c(c1)N(C(C)C(=O)N1CCC3(CC1)OCCO3)C(=O)CO2 (stereo not drawn)	1	-7	15%	-0.2	1.7%	.	4.1
COC(=O)[C@@H]1[C@@H](C(=O)OC)C2(c3ccccc3-c3ccccc32)N(c2ccc(Cl)cc2)N1C#N	-4	27	20%	-0.7	-0.3%	-0.9%	4.1
CCCCn1c(O)c(C(CC)=NCc2ccco2)c(=O)[nH]c1=O	-4	-12	0%	-0.1	6.1%[38.3 µM]	1.8%	-0.2
CC12CCC(=O)CC1CCC1C2C(=O)CC2(C)C1CCC2(C)O (stereo not drawn)	16	.	.	0.6	4.1%	.	.

Additional results.
SMILES	TRPML1 inh	TRPV1 potentiator	Sfp PPTase inh	TRPML1 agonist	PINK1 modulator	ClpP mod	Menin MLL FP FL
COC(=O)C1=C(c2cccc(C#N)c2)C[C@@H]2CC[C@H]1N2C(=O)NCCOc1ccc(OC)cc1	20	-15	.	-0.6	0.5%	1.2%	.
CCN1CCN(S(=O)(=O)c2ccc(Cl)nc2)CC1	6	-8	7%	-0.5	0.8%	-0.7%	2.2
CC(C)(C)c1ccc(O)c(N=Cc2c(O)ccc3ccccc23)c1	5	14	17%	14	-1.2%	.	?
CC1CCC(C)(NS(=O)(=O)OCC(Cl)(Cl)Cl)CC1 (stereo not drawn)	-11	-8	4%	-0.5	7.8%	-1.8%	4.2
O=c1[nH]c(=O)n(Cc2ccccc2Cl)c(O)c1C=Nc1ccc(F)cc1	-9	2	21%	-1.0	9.8%	81%	9.9
COc1ccc(OC)c([C@@H](O)[C@H](C)NC(C)(C)C)c1	12	-5	18%	0.7	-0.1%	0.9%	-2.2
BrCC1C[n+]2c(SCc3ccccc3)nc3sc4c(c3c2O1)CCCC4 (stereo not drawn)	17	-2	-17%	-0.6	-0.2%	-2.5%	3.7
COc1ccc(/C=C/c2nc3ccccc3c(=O)n2-c2ccc(C)cc2)cc1O	8	.	.	0.8	-0.7%	-2.6%	.
CC(C)(C)C(=O)N1Cc2cc(N3CCOCC3)ccc2-n2nncc2C1	.	.	.	-0.4	-0.9%	-2.0%	.
Cc1cc(N2CCN(C)CC2)nc2ccccc12	-13	2	14%	0.0	0.4%	.	16
C[C@@H]1O[C@@H](O[C@H]2C[C@@H](O)[C@]3(CO)[C@H]4[C@H](O)C[C@]5(C)[C@@H](C6=CC(=O)OC6)CC[C@]5(O)[C@@H]4CC[C@]3(O)C2)[C@H](O)[C@H](O)[C@H]1O	21	11&3	17%	-0.7	1.3%	-0.1%	1.9
COC(=O)C(C)Oc1cc(C)cc2oc(=O)c3c(c12)CCCC3 (stereo not drawn)	42	-19	-23%	-0.6	-1.0%	25µM*	-0.2
O=P(NS(=O)(=O)c1ccc(Br)cc1)(Oc1ccccc1)Oc1ccccc1	-7	10	13%	0.3	-1.8%[38.3 µM]	-0.9%	0.9
O=P(Nc1cccc(F)c1)(Oc1ccccc1F)Oc1ccccc1F	1	?	4%	2.9	2.8%	2.5%	0.7
CCOC(=O)c1cc(C)sc1/N=C/C1C(=O)NC(=S)NC1=O	-2	?	20µM*	2.7	-1.0%	.	?
Cc1nc2ccccn2c1P(=S)(N1CCCCC1)N1CCCCC1	-4	-6	56µM*	22	0.8%	-0.2%	0.3
COc1ccc(CCn2c(O)c(C=NC3CC3)c(=O)[nH]c2=O)cc1OC	0	-17	12%	0.5	-1.8%	-2.6%	-1.5
COC(=O)C(O)(c1c(C)[nH]c2ccccc12)C(F)(F)F (stereo not drawn)	2	2	1%	-0.6	0.6%	0.7%	4.1
O=C(N/N=C/c1c(O)n(Cc2ccc(F)cc2)c(=O)[nH]c1=O)c1ccccc1	3	.	24%	0.9	-1.7%	.	2.6

Source: PubChem (National Center for Advancing Translational Sciences (NCATS))

The list is partial; the hit share may differ from the screen's.
